# High-throughput results: PubChem BioAssay, ICCB-Longwood Screening Facility, Harvard Medical School
# fixLJ activator: B. multivorans fixK reporter activation; B. multivorans fixK-promoter GFP reporter, 18 h; stronger effect = higher value; z-score (no concentration beside the values); 29,000 compounds, 0.3% hits; AID 1918990;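 active = replicate mean overnight rise in green fluorescent reporter signal, 3 or more SD over negative controls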;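 note: score is relative to vehicle wells of the plate; 300 nL library stock went into each well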
# * marks the source's active call; other numbers are inactive results. Some of the compounds tested, so the mix of outcomes need not match the whole.
# Sample of the layout (three entries):
mol	fixLJ activator
Cc1cccc(C)c1OCC(=O)Nc1c(C(=O)c2ccccc2)oc2ccccc12	0.42
O=C(O)CCc1nnc2cnc3ccccc3n12	1
O=c1c2cc3c(cc2nc2sc(Nc4ccc(F)cc4F)nn12)OCO3	0.11

# The listing, from the start:
mol	fixLJ activator
Cc1cccc(C)c1OCC(=O)Nc1c(C(=O)c2ccccc2)oc2ccccc12	0.42
O=C(O)CCc1nnc2cnc3ccccc3n12	1
O=c1c2cc3c(cc2nc2sc(Nc4ccc(F)cc4F)nn12)OCO3	0.11
CCC(=O)N1CCCc2cc(S(=O)(=O)Nc3ccc(C)c(C)c3)ccc21	-0.63
CCN(CCCNC(=O)c1nn(-c2ccc(C)cc2)c(=O)c2c1c1ccccc1n2C)c1cccc(C)c1	1.3
CCCCOc1nnc(-c2ccc(OCC)cc2)c2ccccc12	-0.84
CN(C)S(=O)(=O)CC1CN(C(=O)Cc2cccc(F)c2)CC1O (stereo not drawn)	-0.47
Cc1ccc(-c2nc(CS(=O)(=O)CC(=O)N3CCN(c4ccccc4)CC3)c(C)o2)cc1	-0.95
Cc1cccc(N2CCN(C(=O)CCCCn3c(=O)[nH]c4ccsc4c3=O)CC2)c1C	-1.4
O=C(Cc1cccc(O)c1)NC(c1ccc2c(c1)CCO2)C1CC(O)C1 (stereo not drawn)	0.82
Cc1[nH]c2ccccc2c1CCNC(=O)N(C)CCn1ccnc1C	-0.49
CCCN(C)C(=O)c1cc(COc2ccc(F)c(F)c2)on1	-0.23
Cc1nnc2n1CCN(C(=O)CCc1nc(-c3ccccc3)no1)CC2	1.9
O=C(CCn1cnc2ccccc21)N1CCCC1c1cccnc1 (stereo not drawn)	-0.67
C#C[C@]1(O)CCC2C3CCc4cc(OC)ccc4C3CC[C@@]21C (stereo partly drawn)	0.73
COc1ccc(CNCc2c(C(=O)O)c(C)n(Cc3ccc(Cl)cc3)c2C)c(OC)c1	-2.6
CCCc1cc(C(=O)NCC2CCc3ccccc3O2)no1 (stereo not drawn)	-0.98
Cc1ccc(C)c(CNC(=O)c2cnc3sc(N4CCCC4)nn3c2=O)c1	-1.4
Cc1ccc(O)c(C(CC(=O)NCC2(c3ccccc3)CCCC2)c2ccccc2)c1 (stereo not drawn)	2.2
C=CCc1ccc(O)c(OC)c1	-0.2
Cc1ccc(C2(O)CCN(Cc3ccn4nccc4c3)CC2)nc1	0.18
COc1cccc2c1C1(CCN(C(=O)c3cc(CC(C)C)[nH]c(=O)n3)CC1)OCC2	-1.5
N#Cc1ccc(C(=O)N2CCc3nc(-c4ccc(F)cc4F)[nH]c3C2)cc1	-1.4
CCc1ccc(OCC(=O)N(Cc2ccc(C)cc2)Cc2ccco2)cc1	1.3
CCc1nc(C)c(C(=O)Nc2cc3c(cc2C(C)=O)OCCO3)o1	-0.04
Cc1cc(C(=O)NCCCc2nnc3ccccn23)nc(C)n1	-0.17
Cc1ccc2c(CC(=O)N(Cc3ccc(Cl)cc3)Cc3ccco3)coc2c1	-1.6
CC1CCc2noc(NC(=O)c3ccccc3[N+](=O)[O-])c2C1 (stereo not drawn)	3.6*
N#Cc1ccc(S(=O)(=O)N2CCC(Oc3cccc(C(F)(F)F)c3)CC2)cc1	1.4
COc1ccccc1CNC(=O)CCn1c(=O)c2ccccc2n(CC(=O)Nc2ccc(C)cc2C)c1=O	-0.58
COc1ccc(-c2nc3ccccc3o2)cc1NC(=O)C(C)Oc1ccc(Cl)cc1Cl (stereo not drawn)	-0.94
Cn1nc(C2CCCN(C(=O)C3(C(N)=O)CC3)C2)n(-c2ccccc2)c1=O (stereo not drawn)	1.2
Cc1ccc2oc(C(=O)Nc3nnc(CC(C)C)s3)cc(=O)c2c1	-2.1
COP(=S)(OC)Oc1cc(Cl)c(Cl)cc1Cl	0.21
CCC(=O)N1CCc2cc(Br)cc(S(=O)(=O)CCC(=O)NCCc3ccc(Cl)cc3)c21	-1.4
CC1=C(c2ccc(C)c(C)c2)S(=O)(=O)N(Cc2ccc(C(=O)NCc3ccccc3F)cc2)C1=O	-0.16
COc1cc(OC)c(N(C)C(=O)c2cc3c(s2)-c2ccccc2OC3)cc1Cl	-0.69
O=C(NCCn1cc(SCc2ccc(C(F)(F)F)cc2)c2ccccc21)c1cccs1	2
Cc1cccc(NC(=O)Cn2c(=O)n(CCCS(=O)(=O)C3CCCCC3)c(=O)c3ccccc32)c1	-1.1
O=C(c1ccc2c(=O)n(CCc3ccccc3)c(=O)[nH]c2c1)N1CCN(c2ccc(F)cc2)CC1	-0.16
Cc1ccccc1S(=O)Cc1ccc(C(=O)NCc2ccccc2Cl)o1 (stereo not drawn)	-0.09
CCOc1ccc(NC(=O)NCCCN2CCN(c3ccc(OC)cc3)CC2)cc1	-0.32
O=C(CSc1nnc(-c2cccc(Cl)c2)o1)N1CCc2ccccc21	0.1
CCOC(=O)c1ccc(NC(=O)CC2C(=O)N(c3ccccc3)C(=O)N2Cc2ccc(C)cc2)cc1 (stereo not drawn)	-1.6
Cc1ccc(NC(=O)C2CCCN(c3nnc(-n4c(C)ccc4C)s3)C2)cc1Cl (stereo not drawn)	-0.64
Cc1ccc(-n2c(SCC(N)=O)nc3c(oc4ccccc43)c2=O)cc1	-2.1
Cc1cc(CC2CN(C(=O)c3n[nH]c4c3COCC4)CC2O)n[nH]1 (stereo not drawn)	-0.45
COC1CS(=O)(=O)CC1NC(=O)c1onc2c1CCCC2 (stereo not drawn)	-0.39
COc1ccc(N2CCN(C(=O)c3cc4c(s3)-c3c(C)cccc3OC4)CC2)cc1	-1
CCCCOC(=O)/C(C#N)=C/c1ccc(-c2cccc(C(F)(F)F)c2)o1	-0.74

# (further entries)
mol	fixLJ activator
O=C(c1ccccn1)C1CCCN(Cc2cc3ccccc3nc2N2CCOCC2)C1 (stereo not drawn)	-0.81
CNc1ccnc(N2CCC3(CCCN(Cc4cc(OC)ccc4F)C3)C2)n1 (stereo not drawn)	-0.39
Cc1ccsc1CCNS(=O)(=O)c1ccc(-c2onc(C)c2C)o1	-2.2
CC1CCN(C(=O)Cn2c(=O)n(CCCCCC(=O)NCc3ccccc3Cl)c(=O)c3sccc32)CC1	-0.75
CCCc1cc(=O)[nH]c(Nc2cccc(Cl)c2Cl)n1	1.2
CC(=O)Nc1ccc(F)c(NC(=O)N(C)Cc2nc3c(s2)CCCC3)c1	-0.38
Cc1ccc(CS(=O)(=O)c2ncc(Cl)c(C(=O)Nc3nc4ccc(C)cc4s3)n2)cc1	-0.72
O=C(COc1ccccc1)N1CCc2c(nc(-c3ccncc3)[nH]c2=O)C1	-0.44
Brc1cccc(-c2nn(-c3ccccc3)c3c2cnc2cc4c(cc23)OCO4)c1	-0.96
O=C(O)C1(CCCc2ccccc2)CCCN(c2ncccn2)C1 (stereo not drawn)	0.08
NC(=O)C1CC=CCC1NC(=O)COc1ccc(Cl)cc1 (stereo not drawn)	-0.15
COc1ccc(C(C(=O)NCc2ccccc2)N(C(=O)Cn2nnc3ccccc32)c2ccc(F)cc2)cc1 (stereo not drawn)	-0.53
CCCCCn1c(=N)n(CC(O)COc2cccc(C)c2)c2ccccc21 (stereo not drawn)	0.99
O=C(c1ccc2c(c1)N(Cc1ccc(Cl)cc1)C(=O)c1ccccc1S2(=O)=O)N1CCN(Cc2ccccc2)CC1	-0.18
Cc1ccc(-c2nnc(Nc3ccc(OCC(N)=O)cc3)c3ccccc23)cc1S(=O)(=O)N(C)C	-0.88
Cc1cccc(-c2noc(CNC(=O)c3ccccc3Br)n2)c1	-0.72
Cc1ccn2c(Nc3ccc(C(C)C)cc3)c(-c3cccnc3)nc2c1	0.05
CCn1ccc(C(=O)N2CCOc3c(O)cc(-c4ccc(C)cc4)cc3C2)n1	-1.1
CCc1cc2c(cc3c(=O)n(CCCC(=O)NCc4cccc(Cl)c4)ncn32)s1	-2.7
COCCCCCC(=O)N1CC(O)C(Cc2cnccn2)C1 (stereo not drawn)	0
CCCOc1ccc(C2=NC(c3ccc(F)cc3)=Nc3ccc(OC)cc3N2)cc1	-0.38
Cc1ccc(OCCCCn2c(CCNC(=O)C(C)(C)C)nc3ccccc32)cc1	-1.6
Cc1cccc(CN2CCN(C(=O)CC(C)C)C3CS(=O)(=O)CC32)c1 (stereo not drawn)	0.18
Cc1ccccc1OCC1CCCN(c2cncc(C(=O)N3CCCC3)n2)C1 (stereo not drawn)	-0.43
Cc1ccc(Cl)cc1N1CCN(C(=O)c2cn(C3CCCCC3)c(=O)c3c2c2ccccc2n3C)CC1	-1.7
O=C1CC(c2ccccc2)Sc2nc(-c3ccc(F)cc3)nn21 (stereo not drawn)	0.14
CCC(=O)Nc1cc(Cl)ccc1C(=O)N1CCN(c2cc(C)nc(C)c2)CC1	0.28
Cc1ccc(N2CCN(C(=O)CCc3c(C)nc4c(c3C)c(=O)n(C)c(=O)n4C)CC2)c(C)c1	-0.22
Cc1ccc(CN2C(=O)C3(c4ccccc42)N(c2ccc(C)c(Cl)c2)C(=O)CS3(=O)=O)cc1 (stereo not drawn)	-0.09
COc1ccc(NC(=O)c2sc3nc4c(cc3c2N)CN(Cc2ccccc2)CC4)cc1OC	-0.86
O=C(NCCc1noc(C2CCCO2)n1)Nc1cccc(-n2cncn2)c1 (stereo not drawn)	-0.24
CC1CN(C(=O)c2cc(-c3ccco3)nc3c(Cl)cccc23)C[C@]1(C)O (stereo partly drawn)	0.59
Nc1nc(C2CC(NC(=O)COCc3ccccc3)C2)cc(=O)[nH]1 (stereo not drawn)	0.3
CCOc1ccccc1NC(=O)c1nc(SC(C)C)ncc1Cl	2.3
Cc1ccc(C)c(NC(=O)CN(C)S(=O)(=O)c2ccc3c(c2)CCC(=O)N3)c1	-1.3
Cc1ccc(C)c(CN2C(=O)c3ccccc3S(=O)c3ccc(C(=O)N4CCOCC4)cc32)c1 (stereo not drawn)	-1
COc1cccc(-c2nc(S(=O)(=O)c3ccccc3)c(N3CCC(C)CC3)o2)c1	-1.6
O=C1CC(C(=O)N2CCC(Oc3cccnc3)CC2)CN1Cc1cccnc1 (stereo not drawn)	-0.07
Cn1nccc1CCC(=O)Nc1ccc(CC(=O)NC2CC2)cc1	-1.1
Cc1ccc(Cl)c2c1N[C@@H](c1ccc(C(=O)O)cc1)[C@H]1CC=C[C@@H]21	-2.7
Cc1cc(C)c2oc(-c3cccc(NC(=O)COc4ccc([N+](=O)[O-])cc4)c3)nc2c1	-0.84
O=C(Cn1c(=O)oc2ccccc21)Nc1ccc(C(=O)O)cc1	-1.6
Cc1ccc2occ(-c3cc(-c4ccc(F)cc4)nc4c3COc3ccc(F)cc3-4)c(=O)c2c1	0.39
O=C(Nc1cccc(Cl)c1Cl)c1cc2nc(-c3ccc(Cl)cc3)cc(C(F)(F)F)n2n1	0.37
CC1=C(C(=O)OCC2CCCCC2)C(c2cccc(F)c2F)CC(=O)N1 (stereo not drawn)	-1.4
CCOc1ccc(NC(=O)Cn2cc(C(=O)c3ccccc3)c(=O)c3cc4c(cc32)OCCO4)cc1	-1.1
CCOC(=O)C1(C)C=C(Nc2cccc(C)c2)C(=O)N1c1ccccc1 (stereo not drawn)	-0.95
COc1ccc(OCC(=O)Nc2ccc3c(c2)nc(CCNC(=O)c2ccco2)n3C)cc1	0.09
Cc1cc(N)n(CC(=O)NCc2cc3n(n2)CCN(C(=O)C2CCC2)C3)n1	-0.62
CC(=O)N1c2c(cc(Br)cc2S(=O)(=O)Nc2ccc(OC(F)(F)F)cc2)CC1C (stereo not drawn)	0.29

# (list continues)
mol	fixLJ activator
Cc1cc(C)cc(NC(=O)Nc2cccs2)c1	-0.07
CN(CCc1ncon1)C(=O)Cn1cc(C(=O)C2CC2)c2ccccc21	-3.4
Cc1c(CN(C)C(=O)c2nnc(CN(C)C)o2)[nH]c2ccccc12	-1.1
Cc1ccc2oc(C(=O)Nc3sc4c(c3C(=O)NCc3ccco3)CCC4)cc(=O)c2c1	-0.4
COCCNC(=O)c1c(NC(=O)c2cc(=O)c3cc(Cl)ccc3o2)sc2c1CCCC2	-1.2
Nc1nnc(SCC(=O)Nc2cccc(F)c2)s1	1.7
O=C(CCc1ccccc1F)NC1COCC1Cc1ccnc2ccccc12 (stereo not drawn)	1.4
COc1cc(O)ccc1-c1nc2ccc(Br)cn2c1Nc1ccccc1C	0.21
COc1ccc(C(=O)N=c2sc3cc(Cl)ccc3n2C)cc1	-2
CCOC(=O)c1ccc(N2C(=O)c3n[nH]c(-c4ccco4)c3C2c2ccc(C)cc2)cc1 (stereo not drawn)	-0.5

# 7 structures out of the list, arranged by length of the SMILES, highest first:
mol	fixLJ activator
CCOC(=O)c1ccc(N2C(=O)c3n[nH]c(-c4ccco4)c3C2c2ccc(C)cc2)cc1 (stereo not drawn)	-0.5
Cc1ccc2oc(C(=O)Nc3sc4c(c3C(=O)NCc3ccco3)CCC4)cc(=O)c2c1	-0.4
Cc1c(CN(C)C(=O)c2nnc(CN(C)C)o2)[nH]c2ccccc12	-1.1
COc1cc(O)ccc1-c1nc2ccc(Br)cn2c1Nc1ccccc1C	0.21
O=C(CCc1ccccc1F)NC1COCC1Cc1ccnc2ccccc12 (stereo not drawn)	1.4
COc1ccc(C(=O)N=c2sc3cc(Cl)ccc3n2C)cc1	-2
Cc1cc(C)cc(NC(=O)Nc2cccs2)c1	-0.07

# Next part.
mol	fixLJ activator
CC1=C(C(=O)N2CCN(c3ccccc3)C(=O)C2)OCCO1	-1.3
Cc1ccc(Cn2c(=O)n(Cc3ccccc3)c(=O)c3c(C)c(C)sc32)cc1	-0.95
CCn1nc(CO)c2c1CCN(C(=O)CCOc1ccccc1)C2	0.32
CCCn1cnc2cc(NC(=O)c3cc(OC)c(OC)c(OC)c3)ccc21	-0.19
